Screening results as filed in PubChem.
FGF22 binding = shifts melting point of recombinant human FGF22. AID 651658. 1.5% of 340,000 active. Q9HCT0. calls only at 9.99 µM. recombinant FGF22 thermal shift, SYPRO orange fluorescence; percent of sucrose octasulfate shift, DMSO zero;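 active = melting point raised past a set limit in the mean and every replicate; three in four hits are not shown here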
Target sequence (Q9HCT0 whole entry, looked up): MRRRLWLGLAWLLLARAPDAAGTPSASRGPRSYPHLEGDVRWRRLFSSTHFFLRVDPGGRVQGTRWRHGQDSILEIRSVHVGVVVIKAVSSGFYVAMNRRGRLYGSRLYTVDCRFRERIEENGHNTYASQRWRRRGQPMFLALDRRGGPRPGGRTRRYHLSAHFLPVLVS
rRNA inh HTS = selective bacterial rRNA inhibition in E. coli. 1.6% of 350,000 active. E. coli WT GFP vs humanized-ribosome RFP mutants, fluorescence, 24 h; hits give low values; DMSO median 0, no signal -100. GFP signal change (wild-type ribosome), % (no concentration beside the values);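 active = significant combined selectivity score with lowered wild-type GFP, culture density cut under 30%, mutant RFP and density less affected; inactive = any of these conditions unmet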; also: one replicate is shown; some compounds called inactive have numbers as strong as hits
MLL AF4-AF9 inh = MLL-AF4/AF9 protein interaction inhibition; AlphaScreen, biotin-AF4 peptide binding to FLAG-AF9; inhibition, % at 10 µM; 0.47% of 350,000 active; AID 651704;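 active = every replicate reaching a set inhibition limit, whatever the replicate mean, cut at about 25% in these data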;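 also: 0% = plate neutral control median and 100% = total signal loss; the record names both 10 and 1 µM as test concentration; the first replicate is given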
Target sequence (P42568 whole entry, looked up): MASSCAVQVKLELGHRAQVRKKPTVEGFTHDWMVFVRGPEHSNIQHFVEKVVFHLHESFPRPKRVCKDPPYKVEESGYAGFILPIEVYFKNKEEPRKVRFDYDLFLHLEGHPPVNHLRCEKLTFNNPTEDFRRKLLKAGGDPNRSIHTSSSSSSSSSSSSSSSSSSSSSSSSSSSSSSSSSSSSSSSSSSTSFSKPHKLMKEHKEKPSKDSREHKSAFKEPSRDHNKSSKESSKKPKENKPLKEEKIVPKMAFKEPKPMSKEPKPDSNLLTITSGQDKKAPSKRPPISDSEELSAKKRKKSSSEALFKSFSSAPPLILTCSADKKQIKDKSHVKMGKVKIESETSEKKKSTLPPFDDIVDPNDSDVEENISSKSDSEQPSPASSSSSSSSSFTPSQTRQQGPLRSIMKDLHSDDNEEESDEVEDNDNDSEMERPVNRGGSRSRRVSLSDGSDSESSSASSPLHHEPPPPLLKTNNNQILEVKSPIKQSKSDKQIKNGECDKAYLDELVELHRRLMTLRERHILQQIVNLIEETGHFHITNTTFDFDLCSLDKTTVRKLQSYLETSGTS
rRNA inh HTS OD600 = second read-out of rRNA inh HTS, no call of its own (marks repeat the call); OD600 change, %; measured here: OD600 growth;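 optical density of the mix in the first replicate; 0 = DMSO median and -100 = no signal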
rRNA inh HTS RFP = further read-out of rRNA inh HTS, marked with its call; RFP signal change, %; measured here: RFP humanized mutant strains;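 first replicate; 0 = DMSO median and -100 = no signal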
* hit, by the source's call; i = inactive; / = not tested or not shown; + = active, no number; & = joins results of further samples. These rows are one share of the data; count on the stated rates, not on these rows.

canonical_smiles	FGF22 binding	rRNA inh HTS	rRNA inh HTS OD600	rRNA inh HTS RFP	MLL AF4-AF9 inh
Cc1noc(C)c1S(=O)(=O)Nc1ccc2c(c1)C(=O)N([C@@H](C)CO)C[C@H](C)[C@@H](CN(C)Cc1ccc(Cl)c(Cl)c1)OCCCC[C@H](C)O2	i	-8	-17	6.3	0.6
CCCNC(=O)C1(C)CCN(C(=O)c2sccc2C)C1 (centres undefined)	i	5	6	2.2	0.2
COc1ccccc1CCn1cnc(-c2ccccc2F)c1CC(C)C	i	-54	-75	-16	9.9
COCC(=O)Nc1ccc2c(c1)C(=O)N(C)[C@H]1CC[C@H](CC(=O)NCC(F)(F)F)O[C@@H]1CO2	i	-1	-1	-0.6	-1.0
CN(C)C(=O)c1cccc(-c2ccc([C@@H]3[C@@H](CO)N(C(=O)C4CCCCC4)[C@H]3C#N)cc2)c1	i	0	-5	1.2	-1.5
O=C(C[C@@H]1CC[C@H](NC(=O)Nc2ccc3c(c2)OCO3)[C@@H](CO)O1)NCCCN1CCOCC1	i	0	0	2.0	-0.6
CC(C)C1C(=O)N(Cc2cn(CC3CCCCC3)nn2)CCS(=O)(=O)N1Cc1ccc(-c2ccccc2)cc1 (centres undefined)	i	-1	8	-1.5	-2.5
C[C@@H]1CN([C@@H](C)CO)C(=O)c2cc(-c3cccnc3)cnc2O[C@@H]1CN(C)C(=O)NC1CCCC1	i	5	1	-1.5	-16
Cn1cnc(S(=O)(=O)N2C[C@H](O)COC[C@@H]3O[C@@H](CC(=O)NCc4ccc(F)cc4)CC[C@H]32)c1	+	4	8	1.0	-2.1
O=C(Nc1nc(-c2ccc([N+](=O)[O-])cc2)cs1)C1=COCCO1	i	-11	-15	-1.2	-0.9
CN(C)CC#Cc1ccc([C@H]2[C@H]3CN(C(=O)c4ccc(F)cc4)CC(=O)N3[C@H]2CO)cc1	i	4	9	-2.7	-2.3
C/C=C/c1cnc2c(c1)C(=O)N([C@H](C)CO)C[C@@H](C)[C@@H](CN(C)C(=O)Nc1cccc(OC)c1)O2	i	-5	11	2.3	-6.7
CC(C)(C)[S@](=O)N1Cc2cc(C(=O)N[C@H]3CCN(Cc4ccccc4)C3)nc(-c3cccc(-c4cccnc4)c3)c2[C@@H]1CCO	i	-2	8	1.7	8.4
CSCCC(c1nc2ccccc2[nH]1)n1c(=O)c(-c2cccnc2)nc2ccccc21 (centres undefined)	i	2	0	-0.5	6.7
CCN(C[C@H]1[C@@H](c2ccccc2)[C@@H](CO)N1C(=O)COC)S(C)(=O)=O	i	2	3	-0.1	-3.5
CC(C)NC(=O)N1[C@H](C#N)[C@@H](c2ccc(C#CC3CCCCC3)cc2)[C@@H]1CO	i	1	3	-0.3	-3.3
Cc1noc(C)c1NC(=O)NCC[C@H]1CC[C@@H](NC(=O)c2ccc(F)cc2)[C@H](CO)O1	i	-5	-4	1.2	7.5
CCCCNC(=O)C1(C)CCCCN1C(=O)c1ccc2c(c1)C(C)(C)CCC2(C)C (centres undefined)	i	-15	-49	14	-1.6
CC(C)NC(=O)N1[C@@H]2CN(C)c3ccccc3[C@@H]2[C@@H]1CO	i	0	11	-1.4	-1.3
CN1C(=O)c2cc(NC(=O)C3CCOCC3)ccc2OC[C@@H]2O[C@@H](CC(=O)O)CC[C@H]21	i	4	2	-4.5	-2.4
CNC[C@H]1Oc2ccc(NS(=O)(=O)c3cccs3)cc2CC(=O)N([C@H](C)CO)C[C@@H]1C	i	3	8	-3.0	3.6
CCOC(=O)C1(C)CCCN(C(=O)c2cccc(C(F)(F)F)c2)C1 (centres undefined)	i	6	3	-1.6	2.4
COc1ccc(NC(=O)Nc2ccc3c(c2)CC(=O)N([C@H](C)CO)C[C@H](C)[C@H](CN(C)S(=O)(=O)c2ccc(F)cc2)O3)cc1	i	1	-4	-1.1	2.3
CN(C)CC(=O)Nc1ccc2c(c1)[C@H]1C[C@H](CC(=O)NCc3ccccn3)O[C@@H](CO)[C@H]1O2	i	-3	0	-0.5	-1.9
Cn1cnc(CCNC(=O)C[C@H]2CC[C@H]3[C@@H](COC[C@@H](O)CN3C(=O)Nc3ccc(C(F)(F)F)cc3)O2)c1	i	i	/	/	4.5
Cc1noc(C)c1NC(=O)NCC[C@H]1CC[C@@H](NC(=O)Nc2cccc(F)c2)[C@H](CO)O1	i	0	6	-5.1	12
O=C(NCCc1ccncc1)[C@H]1[C@H](CO)[C@H]2Cn3c(ccc(-c4ccccc4)c3=O)[C@H]2N1C(=O)C1CC1	i	0	6	-1.3	-4.1
COc1ccc2c3c(n(C)c2c1)[C@H](CO)N(C)CC31CCN(S(=O)(=O)c2cccs2)CC1	i	-9	-39	2.4	-3.3
Cc1ccc(S(=O)(=O)Nc2ccc3c(c2)CC(=O)N([C@H](C)CO)C[C@H](C)[C@@H](CN(C)C(=O)NC2CCCCC2)O3)cc1	i	2	4	-2.2	-0.6
CO[C@@H]1CN(C)C(=O)c2cc(NC(=O)C3CCC3)ccc2OC[C@@H](C)N(C(=O)Nc2ccc(C(F)(F)F)cc2)C[C@H]1C	i	-61	-81	-19	0.9
N#C[C@@H]1[C@@H](c2ccc(C#Cc3ccccc3F)cc2)[C@H](CO)N1C(=O)C1CCCCC1	i	1	4	-1.0	-2.4
O=[N+]([O-])c1nccn1CCCCCCN1CCOCC1	i	7	6	0.7	-0.1
CSc1ncnc2c1ncn2CCCNCc1cccs1	i	3	4	0.1	-1.2
O=C(O)C(Cc1c[nH]c2ccccc12)NS(=O)(=O)c1ccc(F)cc1 (centres undefined)	i	11	14	0.9	0.0
Cc1ccc(S(=O)(=O)N2C[C@@H](O)COC[C@@H]3O[C@H](CC(=O)N[C@H]4CCN(Cc5ccccc5)C4)CC[C@H]32)cc1	i	0	15	-0.3	0.4
COc1ccc(-c2cnc3c(c2)C(=O)N([C@H](C)CO)C[C@@H](C)[C@H](CN(C)Cc2ccccn2)O3)cc1	i	2	8	0.7	-2.0
Nc1[nH]c(C(=O)c2ccc(Br)cc2)c(-c2cccc3ccccc23)c1C(=O)NCCc1c[nH]c2ccccc12	/	6	10	6.6	4.0
C[C@H](CO)N1C[C@H](C)[C@H](CN(C)C(=O)Nc2cccc3ccccc23)Oc2ccc(NC(=O)C3CCCCC3)cc2C1=O	i	0	-3	2.1	1.1
Cc1ccccc1-c1ccc2c(c1)O[C@H](CN(C)C)[C@H](C)CN([C@H](C)CO)S2(=O)=O	i	-2	3	-2.9	-1.1
Cc1c(C(=O)NCc2cccs2)sc(=O)n1Cc1ccc(S(=O)(=O)N(C)C)cc1	i	4	11	-0.1	-3.7

Profiles from above:
Shown for CSc1ncnc2c1ncn2CCCNCc1cccs1 = FGF22 binding: i; rRNA inh HTS: 3; rRNA inh HTS OD600: 4; rRNA inh HTS RFP: 0.1; MLL AF4-AF9 inh: -1.2
Shown for CO[C@@H]1CN(C)C(=O)c2cc(NC(=O)C3CCC3)ccc2OC[C@@H](C)N(C(=O)Nc2ccc(C(F)(F)F)cc2)C[C@H]1C = FGF22 binding: i; rRNA inh HTS: -61; rRNA inh HTS OD600: -81; rRNA inh HTS RFP: -19; MLL AF4-AF9 inh: 0.9
Shown for O=[N+]([O-])c1nccn1CCCCCCN1CCOCC1 = FGF22 binding: i; rRNA inh HTS: 7; rRNA inh HTS OD600: 6; rRNA inh HTS RFP: 0.7; MLL AF4-AF9 inh: -0.1

(more compounds)
canonical_smiles	FGF22 binding	rRNA inh HTS	rRNA inh HTS OD600	rRNA inh HTS RFP	MLL AF4-AF9 inh
COc1ccc(NC(=O)N(C)C[C@@H]2Oc3cc(C#CCN(C)C)ccc3S(=O)(=O)N([C@@H](C)CO)C[C@H]2C)cc1	i	2	3	2.9	4.5
COc1ccc(S(=O)(=O)N(C)C[C@H]2OCCCC[C@@H](C)Oc3ccc(NC(=O)NC4CCCCC4)cc3C(=O)N([C@H](C)CO)C[C@@H]2C)cc1	i	2	13	2.2	-0.9
CCCC#Cc1ccc([C@H]2[C@H](CO)N3CCCCN(S(=O)(=O)c4ccccc4C)C[C@@H]23)cc1	i	-45	-55	-15	11
COc1ccc(S(=O)(=O)N(C)C[C@H]2Oc3ccc(NC(=O)Nc4c(C)noc4C)cc3CC(=O)N([C@H](C)CO)C[C@@H]2C)cc1	i	2	7	1.1	-2.1
C[C@@H]1CN([C@@H](C)CO)C(=O)c2c(c3ccccc3n2C)-c2ccccc2CO[C@H]1CN(C)S(=O)(=O)c1ccccc1F	i	0	8	-1.5	4.5
Cc1noc(C)c1NC(=O)N(C)C[C@H]1Oc2ccc(N(C)C)cc2C(=O)N([C@H](C)CO)C[C@H]1C	i	2	17	-2.5	0.1
C[C@H](CO)N1C[C@H](C)[C@@H](CN(C)C(=O)NC2CCCCC2)OCCCC[C@H](C)Oc2ccc(NS(=O)(=O)c3cn(C)cn3)cc2C1=O	i	0	-1	1.4	-0.2
COc1cccc(CN(C)C[C@H]2OCc3ccccc3-c3ccccc3C(=O)N([C@@H](C)CO)C[C@H]2C)c1	i	-5	-41	1.7	5.4
CO[C@@H](CN(C)S(=O)(=O)c1ccc(Cl)cc1)[C@H](C)CN(Cc1ccccc1Cl)[C@H](C)CO	i	-4	-15	-1.4	-25
CCNC(=O)C[C@H]1CC[C@H]2[C@H](COc3ccc(NS(C)(=O)=O)cc3C(=O)N2C)O1	i	5	7	-2.7	-2.2
C[C@H]1CN([C@@H](C)CO)C(=O)c2ccccc2-c2ccccc2CO[C@H]1CN(C)Cc1cccc2c1OCCCO2	i	0	3	-0.1	2.3
Cc1ccc(S(=O)(=O)N(C)C[C@H]2OCCCC[C@@H](C)Oc3ccc(N(C)C)cc3C(=O)N([C@H](C)CO)C[C@@H]2C)cc1	i	0&-2	3&4	-3.8&-0.2	5.4
O=C1c2ccccc2C(=O)N1CCc1c(-c2ccccc2)[nH]c2ccccc12	i	-6	-22	-6.0	3.1
COc1ccc(C(C(=O)NC(C)(C)C)n2c(=O)c(-c3ccco3)nc3ccccc32)cc1 (centres undefined)	i	5	8	11	7.0
C[C@H](CO)N1C[C@H](C)[C@H](CN(C)C(=O)c2cc(Cl)cc(Cl)c2)OCc2ccccc2-c2ccccc2C1=O	i	-1	4	-0.6	-8.0
C[C@H]1CN([C@@H](C)CO)C(=O)c2cccc(NS(=O)(=O)c3ccc(F)cc3)c2O[C@H]1CN(C)C(=O)Nc1ccc(C(F)(F)F)cc1	i	-2	1	-0.6	-1.8
C[C@@H]1CN([C@@H](C)CO)C(=O)c2cc(C#Cc3ccccc3F)cnc2O[C@H]1CN(C)C(=O)C1CCOCC1	i	-3	6	-2.7	-1.7
C[C@@H]1CN([C@H](C)CO)C(=O)c2cc(/C=C/c3ccccc3)cnc2O[C@@H]1CN(C)S(=O)(=O)c1ccccc1	i	5	-5	2.0	2.8
C[C@H]1CCCCO[C@@H](CN(C)C(=O)CCCN(C)C)[C@@H](C)CN([C@@H](C)CO)C(=O)c2cc(NC(=O)CCC(F)(F)F)ccc2O1	i	2	5	-1.5	-3.9
OC[C@@H]1[C@H](c2ccc(-c3cccnc3)cc2)[C@H]2CN(Cc3ccccn3)CCCCN12	+	1	6	-1.4	-7.8
O=C(Cc1ccccn1)NCC[C@H]1CC[C@H](NS(=O)(=O)c2ccc(Cl)cc2)[C@H](CO)O1	i	-5	1	0.3	0.8
CO[C@H]1CN(C)C(=O)c2cc(NC(=O)C3CCC3)ccc2OC[C@@H](C)N(C(=O)CN(C)C)C[C@H]1C	i	-1	4	-3.2	1.0
O=C(N[C@@H]1CC[C@@H](CCn2cc(-c3ccccc3)nn2)O[C@@H]1CO)c1cnccn1	i	-1&2	4&5	-1.3&2.7	0.8&0.4
C[C@@H]1CCCCO[C@H](CN(C)C(=O)Nc2ccc(F)cc2)[C@H](C)CN([C@@H](C)CO)C(=O)c2cc(NC(=O)Cc3ccccc3)ccc2O1	i	0	-3	-0.8	-0.7
COc1cccc(-c2ccc([C@@H]3[C@@H](CO)N4CCCCN(S(=O)(=O)c5cccs5)C[C@@H]34)cc2)c1	i	3	-6	6.6	-4.8
O=C(C[C@H]1C=C[C@H](NC(=O)C2CCOCC2)[C@H](CO)O1)Nc1ccc(-c2ccccc2)cc1	i	-2	-3	-0.9	0.9
COCC(=O)N1[C@@H](CO)[C@H](c2ccccc2)[C@@H]1CNC(=O)c1ccccn1	i	-2	6	2.9	-0.6
O=C(C[C@H]1C[C@@H]2c3cc(NC(=O)C4CCOCC4)ccc3O[C@@H]2[C@H](CO)O1)NC1CCCC1	i	2	18	2.0	2.3
CCN1[C@@H]2c3ccc(-c4ccc(F)cc4)c(=O)n3C[C@@H]2[C@@H](CO)[C@@H]1C(=O)OC	i	1	3	1.5	-0.5
